# E coli growth: E. coli growth inhibition | AID 1053175 | Escherichia coli growth, OD600, 23 h; active compounds read low | OD600 absorbance (no concentration beside the values) | 0.21% of 330,000 active;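 active = OD600 absorbance below the run mean of sample wells minus 3.6 SD, in any replicate, cut at about 0.56 in these data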;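 note: stock transfer was 300 nL into about 60 µL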
# RanGTP-Imp inh: inhibitors of RanGTP-importin-beta interaction, primary screen, biochemical, FRET, CFP-Ran, YFP-importin-beta, homogeneous; cell-free CFP-Ran/YFP-importin-beta FRET ratio; inhibition, % (no concentration beside the values); 1.1% of 300,000 active;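 active = most replicates above 15%; inconclusive = exactly half above 15%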;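 note: 0% = DMSO wells and 100% = Ran loaded with GDP instead of GTP; wells of about 40 µL received 100 nL stock; the first replicate is given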
# FGF22 binding: binders of recombinant human FGF22 by thermal shift; SYPRO orange fluorescence; percent of sucrose octasulfate shift, DMSO zero; 1.5% of 340,000 active; Q9HCT0; calls only at 9.99 µM; AID 651658;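 active = melting point raised past a set limit in the mean and every replicate; inconclusive = no clear call; three in four hits are not shown here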
# Target sequence (Q9HCT0 whole entry, looked up): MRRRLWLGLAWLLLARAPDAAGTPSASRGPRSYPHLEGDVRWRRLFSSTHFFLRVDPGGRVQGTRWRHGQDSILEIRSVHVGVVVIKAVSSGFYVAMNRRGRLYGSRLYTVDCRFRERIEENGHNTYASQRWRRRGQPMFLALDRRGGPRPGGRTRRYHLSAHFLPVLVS
# MLL AF4-AF9 inh: MLL-AF4/AF9 protein interaction inhibition | P42568 | inhibition, % at 10 µM | 0.47% of 350,000 active | AlphaScreen, biotin-AF4 peptide binding to FLAG-AF9;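 active = every replicate reaching a set inhibition limit, whatever the replicate mean, cut at about 25% in these data; inconclusive = mean inhibition reaches that limit but some replicates miss it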;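 note: 0% = plate neutral control median and 100% = total signal loss; the record names both 10 and 1 µM as test concentration; the first replicate is given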
# UCH37 DUB inh: human UCH37 deubiquitinating enzyme inhibition | Q9Y5K5 | purified proteasome/UCH37, Ub-AMC cleavage fluorescence | inhibition, % (concentration not given with the values) | 0.33% of 330,000 active | AID 588478;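 active = mean of two replicates above 20%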;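 note: 0% = compound-free wells with enzyme and 100% = wells lacking proteasome; stock transfer was 100 nL into about 20 µL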
# Target sequence (Q9Y5K5 whole entry, looked up): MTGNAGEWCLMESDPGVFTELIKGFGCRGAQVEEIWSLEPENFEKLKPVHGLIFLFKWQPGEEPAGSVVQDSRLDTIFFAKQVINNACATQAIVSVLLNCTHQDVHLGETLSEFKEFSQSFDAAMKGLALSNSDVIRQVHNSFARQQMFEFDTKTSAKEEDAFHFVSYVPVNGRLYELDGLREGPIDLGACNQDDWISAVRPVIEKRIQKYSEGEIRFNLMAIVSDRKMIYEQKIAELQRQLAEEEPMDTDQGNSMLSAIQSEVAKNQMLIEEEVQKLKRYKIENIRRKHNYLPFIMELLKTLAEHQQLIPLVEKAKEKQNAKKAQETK
#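 assay system = human UCH37 enzyme supplied as purified proteasome complex | amount = proteasome at 0.15 nM in the dispensed enzyme solution | schedule = 30 min compound-proteasome preincubation then 25 min substrate reaction, room temperature | measured by = fluorescence, ex 355 nm, em 460 nm | benchmarks = no-proteasome wells (full inhibition) and compound-free wells (no inhibition)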
# HNF4A DNA FP: change in binding of human HNF4 alpha to DNA; HNF4a-FITC DNA binding, fluorescence polarization, 1 h; activity change, % at 10 µM; 0.3% of 360,000 active; P41235; in the data active = activity change above about 30%, passing the limit was not always enough;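 note: controls were the assay level and a saturating level of protein; the project sought stronger binding though the title names inhibitors; some compounds called inactive have numbers as strong as hits; positive values seem to mean higher polarization but the record does not say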
# Target sequence (P41235 whole entry, looked up): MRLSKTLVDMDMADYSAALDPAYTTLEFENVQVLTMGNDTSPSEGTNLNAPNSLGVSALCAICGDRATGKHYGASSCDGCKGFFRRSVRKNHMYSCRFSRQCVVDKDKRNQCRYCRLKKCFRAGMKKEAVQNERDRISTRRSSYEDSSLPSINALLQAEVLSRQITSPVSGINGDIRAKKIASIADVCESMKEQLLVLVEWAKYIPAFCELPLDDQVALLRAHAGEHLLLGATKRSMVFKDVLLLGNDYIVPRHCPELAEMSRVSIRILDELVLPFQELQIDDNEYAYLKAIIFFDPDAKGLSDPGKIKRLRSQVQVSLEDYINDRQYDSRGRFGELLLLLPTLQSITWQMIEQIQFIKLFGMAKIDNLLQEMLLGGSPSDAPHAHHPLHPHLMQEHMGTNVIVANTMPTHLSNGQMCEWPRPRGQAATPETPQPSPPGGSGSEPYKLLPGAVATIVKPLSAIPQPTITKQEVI
# Vif TR-FRET: inhibitors of Vif binding to APOBEC3G peptide, primary screen, biochemical, TR-FRET, GST-Vif 1-94, biotin-A3G peptide, dose response retest (AID 1117319); TR-FRET GST-Vif / biotin-A3G peptide binding; higher % means a stronger effect; test concentration not given here; strong numbers were not always called active; 0.57% of 260,000 active; inhibition, %, or IC50 in µM where a hit was titrated;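 active = above the screen mean plus three standard deviations and confirmed in dose response; inconclusive = results disagree or hit not tested in dose response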;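 note: Vif residues 1-94 fused to GST binding biotinylated APOBEC3G peptide 110-148; 0% = full assay without inhibitor and 100% = GST in place of GST-Vif; retest series ran down from 100 µM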
# * = called active by the depositor; i = inactive; ? = inconclusive; nt = no result given; & = joins results of further samples. A portion of the library, so the mix of outcomes need not match the whole.
SMILES,E coli growth,RanGTP-Imp inh,FGF22 binding,MLL AF4-AF9 inh,UCH37 DUB inh,HNF4A DNA FP,Vif TR-FRET
COc1ccccc1C(=O)C1CCCN(C(=O)c2ccc(C(C)=O)s2)C1 (stereo not given),0.67,0.3,i,0.6,4.3,3.5,6%
CCOC(=O)c1c(C)[nH]c(C)c1S(=O)(=O)NC(CC)CN1CCOCC1 (stereo not given),0.7,-1.0,i,-1.4,4.6,2.9,3%
COc1ccc(N2CCN(C(CNS(=O)(=O)c3ccc4c(c3)OCCO4)c3ccco3)CC2)cc1 (stereo not given),nt,1.1,nt,nt,5.3,-1.0,16%
Fc1ccc(-c2csc3ncnc(N4CCN(Cc5ccccc5)CC4)c23)cc1,0.73,1.4,i,2.7,0.5,-1.1,-1%
COc1ccc(CNC(=O)C2CCCN(S(=O)(=O)c3ccccc3)C2)cc1 (stereo not given),0.7,nt,i,1.9,1.2,1.1,nt
O=C(NCc1ccncc1)C1CCCN(S(=O)(=O)c2ccc(Br)cc2)C1 (stereo not given),0.71,4.2,i,-0.8,2.9,-5.3,nt
COC(=O)C(NC(=O)CCc1nnc2ccc(N3CCCCC3)nn12)C(C)C (stereo not given),0.67,-1.8,i,-10,1.5,0.0,-4%
COc1ccc(CN2CCCC(C(=O)c3ccc(Cl)cc3)C2)cc1Cn1cncn1 (stereo not given),0.68,2.0,i,2.5,3.3,1.1,nt
Cc1cc(OC(C)C(=O)NCc2ccncc2)c2c(C)c(C)c(=O)oc2c1 (stereo not given),0.65,3.6,i,0.3,-116,3.0,nt
NS(=O)(=O)c1cc(C(=O)OCC(=O)Nc2ccc3[nH]c(=O)[nH]c3c2)ccc1Cl,0.7,nt,i,2.2,2.8,-1.9,-11%
CCS(=O)(=O)N1CCC2(CC1)OCCN2S(=O)(=O)c1ccc(C)cc1,0.7,-2.4,i,5.4,-2.3,-1.8,nt
Cc1csc(NC(=O)CSc2nc(C)nc3c2c(=O)n(C)c(=O)n3C)n1,0.74,0.5,i,-0.6,5.8,-1.8,5%
Clc1ccccc1Cc1noc(CN2CCSCC2)n1,0.67,-4.2,i,-0.9,-1.0,-1.9,nt
Cc1ccccc1NC(=O)Cc1nc(COC(=O)Cc2ccccc2F)cs1,0.64,nt,i,1.6,0.7,-3.0,95%
COc1ccc2nc3ccccc3nc2c1NC(=O)c1ccc(Cl)cc1Cl,0.7,-228,nt,nt,7.0,-83,-3%
O=C(C[n+]1ccc(-c2nnc3n2CCC3)cc1)c1ccc(Cl)cc1,0.7,2.0,nt,nt,0.4,1.2,-10%
COc1ccc2c(c1OC)C(=O)OC2Nc1nc2ccccc2s1 (stereo not given),0.68,7.5,i,-1.5,3.2,-2.1,nt
COc1ccc(S(=O)(=O)N2CCN(c3ccc4nnc(-c5ccccc5)n4n3)CC2)cc1,0.73,-2.5,i,1.6,-1.3,2.1,3%
Cc1cccc(OCC(=O)N/N=C/c2cc([N+](=O)[O-])ccc2N2CCOCC2)c1,nt,?,nt,nt,nt,-1.5,-15%
O=C(CCCc1cccs1)Nc1nccs1,0.68,-0.2,i,0.6,-0.1,2.0,nt
O=C(Nc1cccc(C(=O)N2CCCCC2)c1)C1CCCCC1,nt,nt,i,-3.9,nt,4.4,-1%
CCN(CC)CCNC(=O)COc1ccc(OC)cc1,0.67&0.7,-1.2,i,-7.3&-7.9,3.7&0.7,1.1&-0.8,nt
Cc1ccccc1-c1noc(CCC(=O)NCC2CCCO2)n1 (stereo not given),0.66,-2.6,nt,nt,1.5,31,-1%
Cc1nnc2c3ccccc3c(-c3cccc4ccccc34)nn12,0.75,nt,nt,nt,-3.3,2.7,18%
CCc1c(C)nc2cc(-c3ccccc3)[nH]n2c1=O,0.65,-1.3,i,1.4,-10,-6.3,nt
C=CCNC(=O)COc1cc(C)ccc1C,0.71,-0.4,i,-1.9,2.1,-0.4,10%
CS(=O)(=O)c1cccc(C(=O)Nc2nnc(C3=COCCO3)o2)c1,0.63,-4.6,nt,-0.5,3.0,2.5,12%
Cc1cc(C)n(-c2nc(NCCO)c3c4c(sc3n2)CCCC4)n1,0.75,2.1,nt,nt,-10,0.2,-3%&7%
Cc1ccccc1-n1c(SCC(=O)c2c(N)n(C)c(=O)n(C)c2=O)nc2sc3c(c2c1=O)CCCC3,0.71,?,nt,nt,2.3,6.5,nt
CC(C)Cn1c(SCC(=O)N2CCCCC2)nc2ccccc2c1=O,0.68,-3.2,nt,nt,-0.6,-5.2,nt
CC(=O)c1cccc(N=C2NC(=O)CS2)c1,0.75,-1.7,nt,nt,2.3,-0.6,7%
CCN(CC(=O)Nc1cc(Cl)ccc1C)C(=O)CSCc1ccc(C)cc1,0.65,0.3,i,-5.0,1.4,1.6,13%
CCC(C)C(=O)Nc1ccc(OC)cc1[N+](=O)[O-] (stereo not given),0.69,-1.0,i,5.7,4.6,2.3,3%
O=C(NC(=S)Nc1ccccc1N1CCCC1)c1ccccc1Br,nt,-3.8,i,5.0,nt,0.9,nt
O=C(COc1cccnc1[N+](=O)[O-])Nc1cccc(Br)c1,0.67,nt,i,-2.6,3.6,0.2,0%
NS(=O)(=O)c1ccc(CCNC(=O)CCCNC(=O)c2ccc(Cl)cc2)cc1,0.69,-0.1,i,-0.5,0.8,-0.1,?
CCN(C(=O)N1CCOCC1)c1ccccc1,0.64,0.6,i,-1.7,2.2,3.7,-4%
Cc1cc(OCC(=O)O)c2cccc(C)c2n1,0.68,0.2,nt,nt,-5.2,-0.5,2%
CC1CC(C)CN(C(=O)COc2ccc(-c3nnco3)cc2)C1 (stereo not given),0.71,2.9,nt,nt,-0.8,-2.9,3%
O=C(CN(c1ccc(F)cc1)S(=O)(=O)c1ccccc1)NCc1ccco1,0.72,-0.8,nt,nt,0.4,-4.0,-1%
CCOC(=O)c1[nH]c(C)c(C(=O)NCCCOC(C)C)c1C,0.71,-5.0,i,-22,4.2,-1.5,4%
C[C@@H]1CN([C@@H](C)CO)C(=O)c2cc(C#CCN(C)C)cnc2O[C@H]1CN(C)Cc1ccc2c(c1)OCO2,nt,nt,i,8.8&3.9&3.5,nt,6.3,-4%
CCOc1ccc2ccccc2c1/C=N/NC(=O)CNC(=O)C(c1ccccc1)c1ccccc1,nt,-0.9,nt,1.2,nt,0.8,nt
Cc1ccc(NC(=O)NCCCN2CCCC2=O)cc1Cl,0.7,-3.4,i,0.0,3.1,-0.9,-3%
CCCN(CCC)c1nc(N)c(C#N)c(CC#N)c1C#N,0.65,?,nt,nt,-2.8,10,5%
Cn1nc(C(=O)NC2CCC(O)CC2)c2ccccc2c1=O (stereo not given),0.68,nt,i,-2.8,0.5,-0.8,8%
COc1ccc(-c2[nH]ncc2CN2CCN(c3ccccn3)CC2)c(OC)c1,0.7,9.6,i,0.9,0.3,-2.1,nt
Cc1ccc(C)c(N2CCN(c3cnn(-c4nc5ccccc5s4)c(=O)c3Cl)CC2)c1,0.67,2.5,nt,nt,-43,5.5,nt
CCOC(=O)C1(C)NC(c2cccs2)C2C(=O)N(c3ccccc3)C(=O)C21 (stereo not given),0.67,1.2,i,0.3,3.5,0.9,6%
O=C(Cc1ccccc1)N1CCN(c2ccc([N+](=O)[O-])cc2)CC1,0.66,-0.8,i,3.0,10,1.5,-1%
O=C(C[C@H]1C/C=C\CCC(=O)OC[C@H]2CCCN2C1=O)NCCO,nt,nt,i,-1.2,-6.2,-0.8,nt
CSc1nc2ncc(-c3ccsc3)c(N)n2n1,0.62,-1.1,i,0.5,4.9,2.6,11%
CCCCNc1c(-c2ccc(SC(C)CC)cc2)nc2ccc(Cl)cn12 (stereo not given),nt,nt,i,-4.6,nt,-1.8,nt
COC(=O)COc1ccc(S(=O)(=O)Nc2cc([N+](=O)[O-])ccc2C)cc1,0.71,-3.6,i,-3.8,3.8,3.0,-8%
COc1ccccc1OCCn1cc(C(=O)O)c2ccccc21,0.66,-3.3,i,-2.9,-0.4,-0.6,nt
O=C(CCNS(=O)(=O)c1ccccc1C(F)(F)F)N1CCN(S(=O)(=O)c2cccc(F)c2)CC1,0.6,4.6,i,11,1.1,2.6,1%
COc1ccc(OC)c(CNC(=O)Cn2nc(C)c3c(C)n(-c4ccc(C)cc4)nc3c2=O)c1,0.69,1.7,i,-6.9,1.1,0.0,nt
CC(=O)c1c(C)[nH]c(C(=O)NCCc2c[nH]c3ccccc23)c1C,0.72,-2.1,i,-20,2.7,-0.9,nt
Cc1ccc(NCc2nnc(SCC(=O)NCc3ccco3)n2CC2CCCO2)c(C)c1 (stereo not given),0.72,?,nt,nt,4.6,-1.1,3%
COc1ccc(C(=O)N/N=C(\c2ccccc2)c2ccccn2)cc1,nt,3.3,i,-4.1,nt,-1.7,nt

# Next part:
SMILES,E coli growth,RanGTP-Imp inh,FGF22 binding,MLL AF4-AF9 inh,UCH37 DUB inh,HNF4A DNA FP,Vif TR-FRET
Cc1ccc2[nH]c3c(c2c1)CCCC3C(N)=O (stereo not given),0.74,-2.4,i,5.1,3.5,-2.9,nt
COC(=O)[C@]12CCCCC=C1N(Cc1cccc3ccccc13)C(=O)[C@H](CC(=O)NCc1ccc(C)o1)C2,nt,nt,i,0.7,nt,-2.7,nt
CC(CN1CCN(C)CC1)OC(=O)c1ccc(F)cc1 (stereo not given),0.71,0.6,nt,0.9,3.5,1.4,nt
COc1cccc(C(=O)Nn2c(C)nnc2-n2nc(C)cc2C)c1,0.77,4.8,nt,nt,3.9,0.8,nt
CC(=O)c1nc2ccccc2n1CCc1ccccc1,0.7,3.8,i,-3.6,-16,2.7,-7%
CC(=O)NC(c1ccccc1)c1nc(-c2cc3ccccc3o2)cs1 (stereo not given),nt,nt,i,-0.7,nt,0.5,nt
Cc1c(C(=O)Nc2cccc(S(=O)(=O)N3CCOCC3)c2)oc2ccccc12,0.65,nt,i,-3.8,-2.6,4.6,-14%
CCCN1CCC2(CC1)NC(C(=O)O)Cc1c2[nH]c2ccccc12 (stereo not given),0.69,-5.3,nt,nt,1.1,-2.8,6%
C/C(=N/Nc1ccccc1[N+](=O)[O-])c1ccc([N+](=O)[O-])cc1,nt,1.7,i,-4.2,nt,-0.9,nt
COc1ccc(CNC(=O)COC(=O)Cc2ccc(Br)cc2)cc1,0.7,nt,i,-1.4,3.8,1.0,-8%
CCN(CC)c1ccc(NC(=O)C2=CCN(S(=O)(=O)c3ccc(F)cc3)CC2)c(C)c1,0.71,-2.0,i,11,5.7,2.3,12%
N#Cc1ccc(COC(=O)C2CC(=O)N(CCc3ccccc3)C2)cc1 (stereo not given),0.63,nt,i,-11,1.4,3.6,17%
Cc1nnc(-c2cccc(C(F)(F)F)c2)nc1N1CCOCC1,0.65,4.3,i,0.8,3.9,0.7,5%
CCOC(=O)c1cn(CC(=O)Nc2ccc(C(C)C)cc2)nn1,0.62,?,nt,nt,7.4,2.5,1%
O=C(O)CC(Cn1[nH]nnc1=S)c1ccccc1 (stereo not given),0.69,-1.0,nt,nt,1.9,1.0,-2%
COc1cccc(N=C2NC(=O)/C(=C/c3cc([N+](=O)[O-])ccc3O)S2)c1,nt,-32,i,-0.5,nt,76*,nt
Cc1cnc(CN(C)C(=O)C2CCC(=O)N(CCc3ccccc3)C2)[nH]1 (stereo not given),0.63,3.1,i,1.6,-0.2,5.7,nt
